Screens from PubChem.
Rango complex inh – prevents formation of the Rango-importin beta complex. Q14974. Rango CFP/YFP FRET sensor + importin beta, 45 min. Potency, µM (doses to about 92.2 µM), for inactives: at the top dose inhibition of complex formation. 340,000 tested, 0.031% active. AID 540263; active = rising FRET ratio curve, often small or poorly fitted; inconclusive = mostly compound fluorescence or quenching in the first reads; inactive = flat curves in all reads;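 note: potency is the fitted concentration of half-maximal effect; 0% = DMSO wells and 100% = buffer wells lacking importin beta; nearly all actives have a fitted effect of over 15% in size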
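FRET biosensor (snurportin 1 IBB flanked by EYFP and cerulean), 50 nM, with compound 5 min, then 0.125 microM importin beta in PBS, 1 mM DTT, 0.02% Tween-20, 0.1% BSA. CFP/YFP ratio read after 45 min at room temperature; pre-read flags interference.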
GLA inh pH 4.5 – alpha-galactosidase A (human) inhibition, pH 4.5. 230,000 tested, under 10 active. P06280. purified enzyme, 4-MU-alpha-Gal fluorescence, pH 4.5. activity change, negative = inhibition, % at 105 µM; inconclusive = small, poorly fitted or top-dose-only inhibition, or a rising curve; inactive = flat fitted curve, though single readings scatter; no compound was filed as active;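 note: 0% = full activity with enzyme and -100% = basal without enzyme; dose as in the result columns while the protocol names 77 µM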
Target sequence (P06280 whole entry, looked up): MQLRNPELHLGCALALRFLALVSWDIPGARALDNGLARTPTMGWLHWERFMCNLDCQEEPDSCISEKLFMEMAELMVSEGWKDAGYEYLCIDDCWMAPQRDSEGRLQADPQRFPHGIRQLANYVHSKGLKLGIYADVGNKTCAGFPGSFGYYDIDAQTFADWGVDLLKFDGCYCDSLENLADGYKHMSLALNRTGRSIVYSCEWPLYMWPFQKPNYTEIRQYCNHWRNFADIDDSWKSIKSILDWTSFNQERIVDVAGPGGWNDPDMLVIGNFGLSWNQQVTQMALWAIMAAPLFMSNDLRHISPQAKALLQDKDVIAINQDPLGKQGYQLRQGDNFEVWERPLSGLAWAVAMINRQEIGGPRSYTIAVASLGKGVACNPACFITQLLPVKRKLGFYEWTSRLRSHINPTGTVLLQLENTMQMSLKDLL
miR-21 reporter – miR-21 reporter, rising signal; Potency, µM (titrated, usually from 38.3 µM), for the others: at the top dose reporter change, positive = more light; 340,000 tested, under 10 active; HeLa miR-21 FLuc reporter, luciferase, 48 h; active = well fitted rising curve with a large enough effect; inconclusive = small, poorly fitted or top-dose-only effect; inactive = no such curve, though single readings can be large or run the other way;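 note: % of control where 0% means no effect; miR-21 action dims this reporter so a rising signal means less miR-21 action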
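Luminescence from a firefly luciferase reporter carrying a miR-21 binding site downstream, stably expressed under a CMV promoter in HeLa cells that make miR-21 endogenously, reports miRNA modulation after 48 h compound exposure up to approximately 40uM final.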
Rango release inh – prevents RanGTP from dissociating the Rango-importin beta complex. O95149+P62826. Biochemical FRET Rango-importin beta, RanGTP-induced dissociation. Potency, µM (highest dose often 46.1 µM), for the others: top-dose activity change, negative = inhibition. 340,000 tested, 0.071% active. AID 540253; active means falling FRET ratio curve, often poorly fitted, with flat reads before Ran was added; inconclusive means other falling curves, or compound fluorescence or quenching; inactive means flat or rising ratio curve;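 note: potency is the fitted concentration of half-maximal effect; % of control where 0% means no effect; nearly all actives have a fitted effect of over 45% in size; -100% = wells without RanGTP and RCC1; the record marks most hits as doubtful in a second field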
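Quantitative HTS using a FRET biosensor: 0.1 uM Rango, 0.25 uM importin beta, 0.6 uM Ran, 2 mM GTP, 0.2 uM RCC1 final, PBS with DTT, Tween-20 and BSA. Post-read taken 45 min after Ran addition.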
Starred values were filed as active, the others as inactive; ? = inconclusive; nt = not tested or not shown; & = joins results of further samples; [ ] = remark or other dose. Only part of the results is shown. The share of hits here may be higher or lower than overall.

SMILES	Rango complex inh	GLA inh pH 4.5	miR-21 reporter	Rango release inh
COc1cccc(C2=NN(C(=O)c3ccc(C)o3)C(O)(C(F)(F)F)C2)c1 (stereo unspecified)	0.1%	18.1	-3.4%	6.7%
Cc1nnc(SCc2cc(=O)[nH]c(=S)[nH]2)s1	-0.6%	10.3	-4.0%	16.4%
CCn1c(SCC(=O)NC2CCCc3ccccc32)nnc1-c1cccs1 (stereo unspecified)	0.5%	5.1	-0.8%	0.9%
Cc1c(Cl)cccc1NC(=O)Nc1cc(C(C)(C)C)on1	1.1%	nt	11.6%	?
CN(C)CCCNC(=O)C(=O)NCC1OCCN1S(=O)(=O)c1cc(F)ccc1F (stereo unspecified)	6.4%	nt	nt	-0.4%
CCOC(=O)/C=C1\SCC(=O)N1CC(=O)NC(c1ccccc1)c1ccccc1	2.3%	2.3	0.5%	-0.7%
Cc1ccc2c(c1)C(O)(CC(=O)c1cccnc1)C(=O)N2 (stereo unspecified)	-2.0%	-2.5	-5.5%	3.7%
CN(C(=O)c1ccc(NC(=O)C2CC=CCC2C(=O)O)cc1)c1ccccc1 (stereo unspecified)	4.1%	-5.1	-1.0%	8.9%
O=C(COC(=O)c1nc(Cl)ccc1Cl)NNC(=O)c1cccs1	-0.2%	nt	nt	9.1%
O=C(CC1(O)C(=O)Nc2cc(Cl)cc(Cl)c21)c1ccccc1O (stereo unspecified)	-0.6%	0.0	-0.5%	26.5%
CCOCCn1c(N2CCN(c3ccc(OC)cc3)CC2)nc2c1c(=O)n(C)c(=O)n2C	-4.4%	4.1	-4.8%	31.5%
Cn1cccc1C(=O)NC(=O)COC(=O)c1ccc(O)cc1	-0.1%	-7.6	-2.1%	-4.8%
COc1nccnc1NS(=O)(=O)c1ccc(NC(=O)c2ccc(F)cc2)cc1	1.5%	nt	0.0%	-5.5%
CCN(CC(=O)Nc1ccccc1OC)C(=O)CC1CCCC1	?	nt	nt	31.5%
COc1ccc(N2CCC(CNC(=S)Nc3cccc(OC)c3)C2)cc1 (stereo unspecified)	nt	-17.5	-11.8%	nt
Cc1ccc(S(=O)(=O)N2CCOCC2)cc1NC(=O)CNCc1ccc(Cl)cc1Cl	4.1%	nt	nt	15.8%
CCN(C(=O)CSc1nnc(-c2ccncc2)o1)c1ccccc1	-0.4%	nt	-5.2%	7.0%
COC(=O)c1ccc(-c2ccc(CNCC(O)c3ccccc3)o2)cc1 (stereo unspecified)	1.4%	-7.9	-8.6%	-18.9%
CC(=O)N1CCN(C(=O)c2cc(-c3cccc4ccccc34)nc3ccccc23)CC1	3.5%	nt	5.0%	9.5%
COc1ccc(C(=O)N/C(=C/c2ccc(Cl)cc2)C(=O)Nc2ccc(C(=O)O)cc2)cc1	-1.2%	nt	-0.5%	-4.7%
O=C(Cc1ccccc1)Nc1cc([N+](=O)[O-])ccc1N1CCOCC1	-0.5%	-6.7	-0.4%	5.3%
CCn1c(NC(=O)c2nn(C)cc2Br)nc2ccccc21	-0.7%	1.1	-4.8%	6.3%
COc1ccc(Br)cc1C(=O)Nc1ccc(NC(=O)c2ccco2)cc1	-0.3%	8.0	-0.8%	-5.0%
CCCCOc1ccc(Cc2cnc(N)nc2N)cc1	-0.3%	-2.4	-10.3%	21.7%
O=C(COC(=O)CCNS(=O)(=O)c1ccccc1)NC(=O)Cc1ccccc1	-0.2%	nt	nt	2.0%
Continuation.
SMILES	Rango complex inh	GLA inh pH 4.5	miR-21 reporter	Rango release inh
O=C(CSc1nc2[nH]ncc2c(=O)[nH]1)Nc1ccccc1	0.4%	-0.6	2.2%	20.7%
O=C(/C=C/c1ccc(Cl)cc1)N1CCN(CCN2C(=O)c3cccc4cccc(c34)C2=O)CC1	1.0%	nt	nt	39.8%
CC(=O)c1sc(NC(=O)COc2ccc(Cl)cc2Cl)nc1C	-0.6%	-2.2	-2.9%	8.8%
CN(C)S(=O)(=O)c1ccc(NS(=O)(=O)/C=C/c2ccccc2)cc1	5.0%	-1.0	-2.3%	12.5%
Cc1ccc(-n2nc(C(=O)O)cc2-c2ccc(Cl)cc2)cc1	0.1%	4.9	-20.8%	?
OC(CN1CCCCC1)CN(c1ccccc1)c1ccccc1 (stereo unspecified)	-1.7%	-1.3	1.3%	-3.4%
CCOC(=O)c1sc(NC(=O)CN2C(=O)C3CC=CCC3C2=O)nc1C (stereo unspecified)	1.1%	nt	nt	3.0%
Cc1cc(OCCCCCn2ccnc2)cc(C)c1Cl	-0.2%	3.6	-0.3%	-3.3%
CCOc1ccccc1Nc1nnc(SCc2nnc(-c3cc(OC)c(OC)c(OC)c3)o2)s1	-0.8%	-9.0	19.0%	6.8%
COCCn1c(=O)c2c(nc3n2CC(C)CN3CCc2ccccc2)n(C)c1=O (stereo unspecified)	?	nt	-0.3%	7.9%
COc1ccc(CCNC(=O)CCNS(=O)(=O)c2cccc3nsnc23)cc1OC	1.6%	1.0	-7.2%	-0.1%
O=C(CCC(=O)NCc1ccccc1)NCc1ccccc1	1.3%	nt	1.8%	13.2%
Cc1cccc(NC(=O)CCNS(=O)(=O)c2cccc3nonc23)c1C	3.5%	-3.6[21.1 µM]	-1.7%	-12.9%
CCOCCCNc1nc(C(F)(F)F)nc2c1nnn2Cc1ccccc1Cl	-1.6%	nt	12.7%	21.2%
COc1cc(S(=O)(=O)N(Cc2cccs2)C2CC2)ccc1-n1cnnn1	-4.7%	nt	nt	26.5%
N#Cc1c(NC(=O)c2ccc(N3CCOCC3)c([N+](=O)[O-])c2)sc2c1CCCC2	-1.6%	-19.5	-9.0%	11.1%
O=C(NCc1ccco1)Nc1cccc([N+](=O)[O-])c1	-0.5%	3.6	-12.6%	5.3%
COc1cccc2cc(-c3n[nH]c(=S)n3C)oc12	4.4%	5.4	-17.0%	-6.4%
COc1ccc(C2CC(=O)C=C(NCCC(C)C)C2)cc1 (stereo unspecified)	-1.3%	-2.0	-1.3%	-9.4%
Cc1c(NC(=O)CSc2nncc3ccccc23)c(=O)n(-c2ccccc2)n1C	0.1%	-3.6	-8.3%	0.9%
O=C(O)CSc1nc(-c2ccccc2)cc(=O)[nH]1	0.4%	2.7	-1.8%	-0.7%
CCOC(=O)/C(=N\Nc1cc(C(F)(F)F)ccc1Cl)N(CC)CC	0.1%	-7.4	0.3%	-8.9%
O=C(NCCN1CCOCC1)c1ccc(Cl)c(S(=O)(=O)NCc2ccccc2)c1	0.0%	nt	nt	-23.8%
CCOc1ccc(CNC23CN4CN(CN(C4)C2)C3)cc1	-2.4%	10.4	-5.7%	-0.4%
COc1cc(C2C3=C(COC3=O)Oc3cc4c(cc32)OCO4)ccc1O (stereo unspecified)	4.7%	nt	nt	10.6%

Single records (already shown). Screens in order: Rango complex inh | GLA inh pH 4.5 | miR-21 reporter | Rango release inh
Record of `Cc1cc(OCCCCCn2ccnc2)cc(C)c1Cl` → -0.2% | 3.6 | -0.3% | -3.3%
Record of `O=C(CCC(=O)NCc1ccccc1)NCc1ccccc1` → 1.3% | nt | 1.8% | 13.2%

The list continues:
SMILES	Rango complex inh	GLA inh pH 4.5	miR-21 reporter	Rango release inh
Cc1c(Br)cc(C(=O)NCCCN2CCOCC2)c(C)c1C	2.8%	-1.5	-5.4%	4.3%
Cc1c(OCC(=O)C(C)(C)C)ccc2c3c(c(=O)oc12)CCCC3	0.2%	nt	-11.7%	-1.3%
Cc1cccc(N(CC(=O)N2CCN(C)CC2)S(=O)(=O)c2ccccc2)c1	1.5%	-1.3	-0.7%	-2.3%
Cc1cc(C)c2sc(NC(=O)C3CC3)nc2c1	-0.9%	nt	-41.9%	0.7%
Cc1ccccc1NC1=C(Cl)C(=O)OC1NC(=O)c1ccccc1 (stereo unspecified)	2.4%	1.1	-3.7%	6.1%
COc1cc2ccccc2cc1C(=O)N1CC(C)OC(C)C1 (stereo unspecified)	-1.0%	nt	nt	5.0%
Cc1noc(C)c1C(=O)OC(C)C(=O)Nc1ccc(C(N)=O)cc1 (stereo unspecified)	1.0%	nt	nt	-15.3%
CCn1cc(S(=O)(=O)Nc2cccnc2)cn1	0.0%	nt	-1.1%	7.4%
CCCCn1c(C(C)NC(=O)CCC)nc2ccccc21 (stereo unspecified)	0.0%	10.6	0.6%	1.1%
CCCCC(O)(c1ccccc1)C(CN1CCOCC1)c1ccccc1 (stereo unspecified)	-1.5%	nt	9.3%	0.9%
O=C(CSc1nccn1-c1ccc(F)cc1)NCc1ccc(F)cc1	-0.2%	2.6	-0.4%	-2.5%
O=C(O)c1cccc(NC(=O)c2ccccc2NC(=O)c2cccc([N+](=O)[O-])c2)c1	?	nt	2.6%	14.5%
CSc1cccc(NC(=S)Nc2cc(C)ccc2C)c1	1.6%	-7.4	-11.6%	-8.4%
COc1ccc(/C=C/C(=O)O)cc1S(=O)(=O)N1CCc2ccccc2C1	-3.9%	-12.2	-5.1%	-16.5%
O=C(O)/C=C/C(=O)NC1CCS(=O)(=O)C1 (stereo unspecified)	1.2%	1.4	1.8%	26.0%
CCOC(=O)NN1C(=O)c2ccccc2NC1c1cccnc1 (stereo unspecified)	?	-11.9	-1.7%	-12.5%
O=C(CN1C(=O)CSC1=O)c1ccccc1	-0.4%	-3.8	-2.3%	6.5%
CCC(C)NC(=S)N1CCN(C)CC1 (stereo unspecified)	-5.1%	-4.2	-0.2%	10.5%
CC(C)CN1CCC(=O)N(CCN=[N+]=[N-])CC1	-3.2%	nt	-6.3%	9.5%
Cc1nn(-c2ccccc2)c(N)c1N=Nc1ccccc1	2.1%	-4.6	-45.7%	1.0%
CCN1CCN(c2ccc(S(=O)(=O)N3CCOCC3)cc2NC(=O)/C=C/c2ccc(OC)c(OC)c2)CC1	0.8%	nt	nt	-10.4%
COC(=O)c1cn(NC(=O)c2cccc(F)c2)c(=O)c2ccccc12	-1.4%	-26.6	-0.4%	17.2%
Cc1[nH]c(=O)c(C#N)c(C)c1CSc1ncccn1	0.0%	nt	nt	2.1%
CC(C)[C@H](NC(=O)c1ccccc1)C(=O)OCC(=O)N1CCCCCC1	0.4%	3.1	-7.3%	0.4%
O=C1NC[C@@H](c2ccccc2)OC(=O)[C@@H](Cc2ccc(F)cc2)CC/C=C/C[C@@H]1CC(=O)N(CCO)Cc1ccccc1	-2.2%	nt	nt	1.5%
(more compounds)
SMILES	Rango complex inh	GLA inh pH 4.5	miR-21 reporter	Rango release inh
CCC(=NC)C1=C(O)CC(c2ccccc2)CC1=O (stereo unspecified)	-0.4%	nt	-14.6%	-1.1%
CCC(=O)Nc1ccc(S(=O)(=O)c2ccc(NC(=O)CC)cc2)cc1	-0.6%	2.5	-3.5%	2.8%
CCOC(=O)[C@H]1[C@H]2COc3ccc(C)cc3[C@@H]2N2C(=O)c3cc(Br)ccc3NC(=O)[C@@]12C	-0.8%	nt	nt	3.5%
c1ccc(CSc2nnc(Cc3ccccn3)o2)cc1	-0.9%	6.2	-35.0%	16.5%
COc1cccc(C=N[C@@H](CO)[C@@H](O)c2ccc([N+](=O)[O-])cc2)c1O	3.7%	0.7	2.7%	2.5%
Cc1cc(Br)ccc1SCC(=O)OCC(=O)NC1CCCC1	1.4%	0.2	-1.7%	-4.9%
N/C(=N/OC(=O)c1ccccc1Cl)c1ncc([N+](=O)[O-])s1	-0.1%	-0.7	-27.5%	-6.5%
CC(C)CCNC(=O)C1CC(c2cccc(F)c2)=NO1 (stereo unspecified)	-4.3%	-2.4	-1.9%	0.7%
COc1ccc(N2CC(C(=O)Nc3nnc(SCCC4OCCO4)s3)CC2=O)cc1 (stereo unspecified)	1.3%	nt	-3.3%	15.1%
Cc1cc(OCC(=O)NC(C)C)cc(C)c1Cl	-3.0%	-5.6	-4.3%	0.2%
CC(C)OCCCNC(=O)CN1C(=O)CSc2ccc(S(=O)(=O)N3CCCCC3)cc21	1.0%	nt	0.6%&-0.6%	-2.2%
CC(/C=C/c1ccc2c(c1)OCO2)=N/NC(=O)c1cccnc1	-1.3%	-2.9	-14.1%	?
O=C(Nc1nc2ccc(F)cc2s1)C1CC(=O)N(c2ccc3c(c2)OCCO3)C1 (stereo unspecified)	-0.6%	nt	nt	24.7%
O=C(NCc1ccco1)C(=O)NCC(c1ccco1)N1CCOCC1 (stereo unspecified)	-3.3%	10.2	-0.1%	-1.7%
Cc1ccc(CC(=O)Nc2ccccc2-c2ccccc2)cc1C	-4.5%	-0.4	1.2%	26.5%
